Bioassay records from PubChem.
VACV Venus inh = inhibitors of vaccinia virus (Venus reporter). Vaccinia virus Venus reporter expression, fluorescence. Potency, µM (titrated, usually from 36.5 µM), without a hit: at the highest dose activity change, negative = inhibition, hits mostly inhibitors. 330,000 compounds, 0.46% hits; active means well fitted inhibition curve with a large enough effect; inconclusive means small, poorly fitted or top-dose-only effect; inactive means no such curve, though single readings can be large or run the other way; tested in A549 cells; note: nearly all actives have a fitted effect of over 30% in size; inactives centre near -10
VACV mCherry inh = inhibitors of vaccinia virus infection (mCherry reporter signal); Vaccinia virus mCherry reporter infection, fluorescence; about a quarter of the inactives have no number; Potency, µM (top dose mostly 36.5 µM), without a hit: top-dose activity change, negative = inhibition, actives largely listed as inhibitors; 310,000 compounds, 0.63% hits; AID 720579; active = well fitted inhibition curve with a large enough effect; inconclusive = small, poorly fitted or top-dose-only effect; inactive = no such curve, though single readings can be large or run the other way; tested in A549 cells; note: nearly all actives have a fitted effect of over 35% in size; inactives centre near -10
* marks the source's active call; other numbers are inactive results; i = inactive; ? = inconclusive; . = not tested or not shown; & = joins results of further samples; [ ] = remark or other dose. % is set by controls: 0 for no effect and ±100 for the full control effect; potency is the fitted concentration of half-maximal effect.

Screens in order: VACV Venus inh, VACV mCherry inh
Cn1c2c(c3ccccc31)CC/C2=N\O
→ ?, ?
O=C(O)CCS(=O)(=O)c1cc(Br)cc2c1N(C(=O)C1CC1)CC2
→ -13.6%, -9.7%
CSCc1nnc(NC(=O)c2ccc(S(=O)(=O)N3CCCCC3C)cc2)o1 (stereo not given)
→ -11.9%, -22.9%
CCn1c(C)cc(C(=O)COC(=O)c2cccnc2SC)c1C
→ -9.4%, -11.3%
CCCCn1nnnc1SCC(=O)Nc1cccc(C)n1
→ -13.0%, -3.4%
O=C(Nc1ccc(N2CCOCC2)cc1)C1CCN(S(=O)(=O)Cc2ccccc2)CC1
→ 3.7%, 2.4%
O=c1sc2ccccc2n1CCCOc1ccccc1
→ -9.1%, i
Cn1ccnc1C(O)c1ccc(OCc2ccccc2)cc1 (stereo not given)
→ -12.0%, .
Cc1cccc(C)c1NC(=O)COC(=O)COc1ccc2c(C)cc(=O)oc2c1
→ -23.7%, -2.8%
CC1CCCC(NC(=O)COC(=O)CCC2CCCC2)C1C (stereo not given)
→ -8.2%, i
NS(=O)(=O)Oc1ccccc1
→ -1.4%, i
C[C@H]1CN([C@@H](C)CO)C(=O)c2cc(Br)cnc2O[C@H]1CN(C)C(=O)c1cnccn1
→ -5.8%, i
COc1cc(C2/C(=C(\O)c3ccc4c(c3)CC(C)O4)C(=O)C(=O)N2CC2CCCO2)cc(OC)c1OC (stereo not given)
→ -11.4%, i
CC(=O)OC(=C(OC(C)=O)c1ccccc1)c1ccccc1
→ 13.7%, i
O=C(O)c1ccc(CSCc2ccco2)cc1
→ -8.9%, -14.6%[1.46 µM]

Following part
Screens in order: VACV Venus inh, VACV mCherry inh
Cc1ccc(CN2CCN(CC(=O)NCc3ccc(Cl)cc3)C2=O)cc1
→ ?, .
O=C(CCC1CCCC1)Nc1ccc(Br)cn1
→ -26.4%, ?
Cc1ccccc1C(=O)Nc1ccnn1C1CCN(Cc2c(C)n(C)c3ccccc23)CC1
→ -1.9%[7.34 µM], -11.7%[7.34 µM]
CCOc1ccc(C(=O)NCC(=O)OCc2c(F)cccc2Cl)cc1
→ -6.1%, -13.7%
Cc1ccc(NC(=S)Nc2ccc(F)cc2)c(C)c1
→ -13.5%, -7.0%
COc1ccc(NC(=O)CN2CCCCC2)cc1S(=O)(=O)N1CCCCC1
→ -20.2%, -7.0%
COc1cccc(CN2CCN(C(=O)[C@H]3O[C@@H](n4cnc5c(N)ncnc54)[C@H](O)[C@@H]3O)CC2=O)c1
→ -3.8%, 10.2%
c1csc(CNc2ccc3c(c2)OCCO3)c1
→ -14.8%, -23.2%
CCOP(C)(=O)C1(C(=O)OCc2ccccc2)CC1 (stereo not given)
→ -15.3%, .
CCCCNC(=O)C1C(c2ccc(OC)cc2)=Nc2ccccc2N1C(=O)c1ccncc1 (stereo not given)
→ -8.7%, ?
O=C(NC1CCCC1)c1cc(Nc2cccc(C(F)(F)F)c2)nc2ccccc12
→ -4.2%, -14.8%
CN(c1ccccc1C(=O)Nc1cccc([N+](=O)[O-])c1)S(C)(=O)=O
→ -5.2%, -11.1%
CN1CCN(c2ccc(C(F)(F)F)cc2NC(=O)c2ccco2)CC1
→ -14.4%, -19.7%
Cc1nc(SCC(=O)Nc2ccc(Br)cc2)[nH]c(=O)c1Cc1ccccc1
→ -0.4%, 3.8%
CCOc1cc(C=C(C(=O)OC)C(=O)OC)ccc1OCc1ccc([N+](=O)[O-])cc1
→ 10µM*, .

Looked up above.
`Cc1ccc(NC(=S)Nc2ccc(F)cc2)c(C)c1` | VACV Venus inh: -13.5%
`CCOc1ccc(C(=O)NCC(=O)OCc2c(F)cccc2Cl)cc1` | VACV mCherry inh: -13.7%
`CCOc1cc(C=C(C(=O)OC)C(=O)OC)ccc1OCc1ccc([N+](=O)[O-])cc1` | VACV Venus inh: 10µM*
`COc1ccc(NC(=O)CN2CCCCC2)cc1S(=O)(=O)N1CCCCC1` | VACV mCherry inh: -7.0%

Next part:
Screens in order: VACV Venus inh, VACV mCherry inh
O=C(OCc1cc2ccccc2[nH]c1=O)C1CCCCC1
→ -12.8%, .
O=C(/C=C/c1ccco1)OCC(=O)c1cccc([N+](=O)[O-])c1
→ -16.9%, -26.7%
O=C(O)CC[C@@H](C(=O)O)N1C(=O)c2ccccc2C1=O
→ -8.8%, i
O=C(c1ccc2c(c1)OCO2)C1CCCN(Cc2ccc(F)c(F)c2)C1 (stereo not given)
→ -13.0%, -9.5%
Cc1ccc(NS(=O)(=O)c2cccc(C(=O)NNC(=O)c3cccn3C)c2)c(C)c1
→ -19.3%, -28.0%
CC(C)(C)NC(=S)NCc1ccco1
→ -1.2%, -21.1%
CN(CC(=O)Nc1cccc(F)c1)C(=O)CC1CCCC1
→ -16.8%, -15.3%
C[C@@H]1CN([C@@H](C)CO)C(=O)c2c(c3ccccc3n2C)-c2ccccc2CO[C@H]1CN(C)S(=O)(=O)c1ccc(C(F)(F)F)cc1
→ -19.5%, -22.3%
N#CCCn1nc(-c2ccc(Br)cc2)cc1Nc1ccccc1NC(=O)C(F)(F)F
→ ?, ?
CC1=C(C(=O)N(C)C)CC(CC(=O)NCc2ccco2)C(=O)N1CCC1=CCCCC1 (stereo not given)
→ -7.0%, -12.4%
COc1ccc(NC(=O)CSc2nnc(-c3ccncc3)o2)c(OC)c1
→ -5.6%, -14.1%
CCN(C[C@H]1N[C@@](Cc2ccccc2)(C(=O)OC)[C@H]2C(=O)N(C)C(=O)[C@@H]12)C(=O)C1CCCCC1
→ -14.8%, i
CC1CN(S(=O)(=O)c2ccc(C(=O)Nc3ccc(S(=O)(=O)N4CCOCC4)cc3)cc2)CC(C)O1 (stereo not given)
→ -14.4%, -15.2%
COc1ccc(S(=O)(=O)NC(=O)C2(C)CCN2C(=O)C2(c3ccc(Cl)cc3)CCC2)cc1 (stereo not given)
→ -1.8%, -4.9%
COc1ccc(/C=N/NC(=O)c2cccc(NC(=O)c3ccccc3Cl)c2)cc1OC
→ -9.0%, i

Compounds above that have an NH in an aromatic ring, in the order listed:
Screens in order: VACV Venus inh, VACV mCherry inh
Cc1nc(SCC(=O)Nc2ccc(Br)cc2)[nH]c(=O)c1Cc1ccccc1
→ -0.4%, 3.8%
O=C(OCc1cc2ccccc2[nH]c1=O)C1CCCCC1
→ -12.8%, .

Next entries follow.
Molecule,VACV Venus inh,VACV mCherry inh
COc1cccc(NC(=O)CSc2nc3c([nH]c4ccccc43)c(=O)n2-c2ccccc2)c1,-12.3%,i
CN1C2CCC1C(C(=O)O)C(O)C2 (stereo not given),-10.8%,i
Cc1ccc(CNC(=O)C2CCCN(S(=O)(=O)c3cccc4nonc34)C2)cc1 (stereo not given),6.9%,-12.6%
CCCCN1C[C@H](CO)Oc2cccc(F)c2S1(=O)=O,-8.4%,i
CCCCc1ccc(NC(=O)Cn2cnc3c2c(=O)n(C)c(=O)n3C)cc1,-3.0%,-11.6%
O=C(Cc1cccc(NC(=O)C2CCCN(C(=O)C3CC3)C2)c1)Nc1ccc(C(=O)N2CCOCC2)cc1 (stereo not given),1.3%,-14.6%
O=C(c1ccco1)N(Cc1ccc([N+](=O)[O-])cc1)c1ccc(Cl)cc1,0.0%,-5.8%
Cc1cccc(OCC(=O)Nc2cccc(-c3nnc(-c4ccccc4)o3)c2)c1C,0.8%,i
COc1cc(OC)c(OC)cc1/C=C/c1cc[n+](C)c2ccccc12,42.3%[activator],33.5%[activator]
CN(C)CCN1CCN(C2CN(Cc3ccc(F)cc3)S(=O)(=O)C2)CC1 (stereo not given),-3.3%,23.4%
NS(=O)(=O)c1ccc(N2N=C(c3ccccc3)CC2c2ccccc2Cl)cc1 (stereo not given),?,?
O=C1c2cccc3cccc(c23)C(=O)N1CC1CCN(S(=O)(=O)c2ccc(F)cc2)CC1,-23.0%,-12.5%

Continued; the last 2 above are carried over.
Molecule,VACV Venus inh,VACV mCherry inh
NS(=O)(=O)c1ccc(N2N=C(c3ccccc3)CC2c2ccccc2Cl)cc1 (stereo not given),?,?
O=C1c2cccc3cccc(c23)C(=O)N1CC1CCN(S(=O)(=O)c2ccc(F)cc2)CC1,-23.0%,-12.5%
Cc1ccc(CNC(=O)C(=O)NCC(c2ccco2)S(=O)(=O)c2ccc(C)cc2)cc1 (stereo not given),-15.1%,-24.9%
O=C(c1ccco1)N1CCN(C(c2ccc(Cl)cc2)c2nnnn2CC2CCCO2)CC1 (stereo not given),-9.7%,.
COc1cccc(NC(=O)CN2C(=O)CSc3nc(C)cc(C)c32)c1,-14.2%,-18.5%
COc1ccc(C=NNc2ccc([N+](=O)[O-])cc2S(=O)(=O)Nc2ccccc2C(=O)O)cc1OC,-10.7%,-22.2%
COc1ccc(SC[C@H](Cc2ccccc2)N2CC[C@@H](C(C)(C)C)CCC2=O)cc1,-23.7%&-10.5%,-14.3%
COc1ccc(OC)c(CCNC(=O)c2c3c(nc4ccccc24)C(=O)N(C2CCCCC2)C3)c1,-8.1%,-14.8%
CC(C)Cc1nnc(NC(=O)c2ccc(S(=O)(=O)N3CCCC3)cc2)s1,-5.9%,i
C/[N+]([O-])=C1\Cc2ccccc2C1=O,9.0%,.
Cc1ccc(/C=N/NC(=O)c2cccc(S(=O)(=O)Nc3ccccc3Cl)c2)o1,-6.5%,i
Cc1ccc(Cl)cc1NC(=O)CCn1c(=O)c2cccn2c2cccnc21,3.9%,-8.0%
CCn1c(C)nc2cc(C(=O)NNS(=O)(=O)c3cc(Br)ccc3Br)ccc21,10.6%,-7.0%
NC(=S)Cc1nc(-c2ccccc2)cs1,13.1%,-12.4%

The results go on.
Molecule,VACV Venus inh,VACV mCherry inh
Cc1ccc(NC(=O)COC(=O)C2=NN(c3ccccc3)C(=O)CC2)c(Br)c1,-6.2%,i
COc1ccc(C(=O)Nc2ccc(Nc3ccccc3)cc2)cc1Br,-18.3%,-21.4%
Cc1cc(Cn2nc(-c3ccccc3)cc2C(=O)NCC2CC2)on1,-22.7%,-13.5%
CCOc1ncccc1C(=O)OCc1nnc(-c2ccccc2)o1,-0.6%,-13.1%
O=C(OCC(=O)N1CCN(Cc2ccccc2)CC1)c1cc(Cl)ccc1[N+](=O)[O-],-12.4%,i
Cc1ccc(SCc2nc3ccccc3n2CC(=O)Nc2ccc(Cl)cc2)cc1,-24.7%,-18.0%
COc1ccc(C2NC(=O)NC(C)=C2C(=O)Nc2cc(C)cc(C)c2)c(OC)c1 (stereo not given),0.9%,12.3%
CC1CCCCC12NC(=O)N(CC(=O)Nc1ccc3[nH]c(=O)[nH]c3c1)C2=O (stereo not given),-18.9%,-1.4%
CN(C)S(=O)(=O)c1ccc(Cl)c(NC(=O)COC(=O)/C=C/c2ccc(S(=O)(=O)N3CCOCC3)cc2)c1,-6.8%,-5.0%
CCc1ccc(Nc2nc(N)nc(CSc3nc4ccccc4s3)n2)cc1,-13.9%&-1.1%,-24.0%&-10.2%
O=C(COc1ccc2ccc(=O)oc2c1)NC1CCN(Cc2ccccc2)CC1,-10.3%,-5.3%
Cc1ccc(C(=O)/C=C/N(C)C)cn1,-14.0%,-13.2%

(list continues)
Molecule,VACV Venus inh,VACV mCherry inh
Cc1ccc(N(CC(=O)NCc2ccccc2)C(=O)CCC(=O)Nc2ccccn2)c(C)c1,-3.6%,-13.1%
CC1(C)NC(=O)N(Cc2cc(=O)n3ccsc3n2)C1=O,-1.8%,-0.1%
CCCN(C)C[C@H]1OCc2cnnn2CCCC(=O)N([C@H](C)CO)C[C@@H]1C,-12.8%,7.6%
CCC(C)Sc1ccc([C@H]2N[C@@](Cc3ccccc3)(C(=O)OC)[C@H]3C(=O)N(CC)C(=O)[C@@H]23)cc1 (stereo not given in full),-19.4%,-23.6%
O=C(COc1cccc2ccccc12)NNC(=O)CSCCO,-5.6%,-2.4%
COc1ccc([C@@H]2CC(=O)[C@@H]3CN(S(=O)(=O)c4ccc(C)cc4)[C@H](c4ccccc4)C[C@@H]3N2S(=O)(=O)c2ccccc2)cc1,-6.0%,21.7%
O=C1Nc2ccccc2/C1=C/C(=O)c1cccs1,-16.9%,-4.7%
COc1ccc(S(=O)(=O)N2C[C@H]3CON(C)[C@H]3C[C@H]2c2cccc(Br)c2)cc1,-9.0%,-6.1%
COc1ccc(C(=O)NCc2nnc(SCC(=O)Nc3ccc4c(c3)OCO4)o2)cc1,-2.6%,-2.5%
COc1ccc2cc(C=NS(=O)(=O)c3ccc(C)cc3)n(C)c2c1,-22.8%,i
N#Cc1nc(COc2cccc(Cl)c2)oc1NCCN1CCOCC1,-9.5%,-20.3%
CN(C)c1cc(-c2cccc(C(F)(F)F)c2)oc(=O)c1Cl,-14.3%,-4.9%

Profiles, quoted from the list.
Profile of `N#Cc1nc(COc2cccc(Cl)c2)oc1NCCN1CCOCC1` = VACV Venus inh = -9.5%; VACV mCherry inh = -20.3%
Profile of `O=C(COc1cccc2ccccc12)NNC(=O)CSCCO` = VACV Venus inh = -5.6%; VACV mCherry inh = -2.4%

Continued:
Molecule,VACV Venus inh,VACV mCherry inh
O=C1C2C3C=CC(CNS(=O)(=O)c4ccccc4[N+](=O)[O-])(O3)C2C(=O)N1c1ccccc1 (stereo not given),2.0%,-12.7%
CCOC(=O)c1cccc(NC(=O)c2cc3cc4ccc(C)cc4nc3o2)c1,0.3%,-5.8%
O=S(=O)(NC1CCCCC1Nc1ccc(Cl)cc1)c1ccccc1 (stereo not given),-21.3%,-28.0%
CCOc1ccccc1NC(=S)N1CCC(NC(=O)NC23CC4CC(CC(C4)C2)C3)CC1,-28.1%,?
N#C/C(=C\c1cccnc1)C(=O)Nc1cccc2ccccc12,-8.9%,-8.5%
COc1ccc(-c2csc3ncnc(N4CCN(Cc5ccccc5)CC4)c23)cc1,-16.4%,-14.1%
